# Screening data from PubChem.
# HPGD block: blocks human HPGD enzyme activity; purified HPGD, NADH fluorescence kinetic, PGE2 substrate; Potency, µM, for inactives: top-dose activity change, negative = inhibition, most hits filed as inhibitors; 150,000 tested, 4.3% active; P15428; AID 894; active = well fitted inhibition curve with a large enough effect (not every such curve was filed as active); inconclusive = small, poorly fitted or top-dose-only effect, or another doubt; inactive = no such curve, though single readings can be large or run the other way;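 also: top concentration of the series not given in the record; plate controls included wells without enzyme; inactives centre near -10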
# Target sequence (P15428 whole entry, looked up): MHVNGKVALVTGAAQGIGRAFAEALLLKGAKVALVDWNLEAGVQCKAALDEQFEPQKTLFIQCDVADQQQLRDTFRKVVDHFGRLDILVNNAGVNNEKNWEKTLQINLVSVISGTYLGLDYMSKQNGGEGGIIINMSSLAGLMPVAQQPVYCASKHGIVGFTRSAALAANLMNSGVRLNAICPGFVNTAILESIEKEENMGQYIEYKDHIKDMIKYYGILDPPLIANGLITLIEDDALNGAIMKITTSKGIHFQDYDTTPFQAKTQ
#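 20 nM HPGD preincubated 15 min at room temperature with compound in 50 mM Tris-HCl pH 8, 0.01% Tween 20. Started with 1 mM NAD+ and 30 uM prostaglandin E2; NADH fluorescence (360/450 nm) read 5 times over 30-s intervals, last minus first.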
# The depositor's hits bear a star; u = inconclusive. % is scaled to controls: 0 for no effect and ±100 for the full control effect; potency is read from the fitted curve at half-maximal effect.
Cn1cc(SCC(=O)N2CCN(c3ccccc3)CC2)c2ccccc21
  HPGD block = -5%
COc1ccccc1NC(=O)Cn1cnc2c(cnn2-c2ccc(C)c(C)c2)c1=O
  HPGD block = -27%
COC(=O)c1ccc(N(C(=O)c2ccco2)C(C(=O)NC2CCCC2)c2ccco2)cc1 (stereo not drawn)
  HPGD block = 4%
CCN(CC)S(=O)(=O)c1ccc(Cl)c(C(=O)NC2CCCC2)c1
  HPGD block = -1%
O=C(C1CCN(Cc2ccc(OCc3ccccc3)cc2)CC1)N1CCCC1
  HPGD block = -10%
Fc1cccc(NC(=S)N2CCCCC2)c1
  HPGD block = -9%
O=C(NNC(=S)Nc1ccccc1)c1cccs1
  HPGD block = -7%
CCSc1nc2ccccc2n1CC(=O)N1CCCCC1
  HPGD block = -2%
CC1CCCCC1NC(=O)/C(C#N)=C/c1ccc(F)c(F)c1 (stereo not drawn)
  HPGD block = -9%
O=CNCC(=O)NC1CCCCCC1
  HPGD block = -8%

# The closing five records of the part above come first, to join the parts.
Fc1cccc(NC(=S)N2CCCCC2)c1
  HPGD block = -9%
O=C(NNC(=S)Nc1ccccc1)c1cccs1
  HPGD block = -7%
CCSc1nc2ccccc2n1CC(=O)N1CCCCC1
  HPGD block = -2%
CC1CCCCC1NC(=O)/C(C#N)=C/c1ccc(F)c(F)c1 (stereo not drawn)
  HPGD block = -9%
O=CNCC(=O)NC1CCCCCC1
  HPGD block = -8%
CC1=C(Sc2ccccn2)C(=O)NC(C)(C)C1
  HPGD block = -2%
Cc1cccc(NS(=O)(=O)c2ccc(C3CCCCC3)cc2)c1
  HPGD block = 4%
CC(=C/c1ccc(C(C)C)cc1)/C=N/NC(=O)Cn1nc(C)cc1C
  HPGD block = u
CC12C=CC3(O1)C(C(=O)N(c1ccccc1)C3C(=O)NC1CCCC1)C2C(N)=O (stereo not drawn)
  HPGD block = -3%
Cc1ccc(NC(=O)CSc2nc(C)c(C)c(C)n2)c([N+](=O)[O-])c1
  HPGD block = -16%
Cc1cccc(N(C(=O)Cn2nnc3ccccc32)C(C(=O)NC(C)(C)C)c2ccsc2)c1C (stereo not drawn)
  HPGD block = -3%
Cc1ccc2c(c1)cc(CN(Cc1ccc3c(c1)OCO3)C(=O)c1cnccn1)c1nnnn12
  HPGD block = -7%
Cc1cc(NC(=O)/C=C/c2ccc(Br)cc2)no1
  HPGD block = -14%
CCn1c(SCC(=O)O)nnc1C1CCCCC1
  HPGD block = -1%
CCOC(=O)CCCCC(=O)c1[nH]c(=O)[nH]c1Cn1ccnc1
  HPGD block = -17%

O=C(Cn1nc(Cc2cccnc2)c2ccccc2c1=O)NCC1CCCO1 (stereo not drawn)
  HPGD block = -4%
Cc1nc2ccccc2n1CCCOc1ccccc1
  HPGD block = -4%
CCOP(=O)(OCC)C(Nc1cccc(C(F)(F)F)c1)c1ccc(F)cc1 (stereo not drawn)
  HPGD block = -7%
CC1CCN(S(=O)(=O)c2ccc3c(c2)c(=O)c(C(=O)NC2CCCC2)cn3C)CC1
  HPGD block = -9%
COC(=O)CN1C(=S)N(Cc2ccccc2)C(=O)C1CC(=O)Nc1ccc(Br)cc1 (stereo not drawn)
  HPGD block = -7%
Fc1cccc(-c2cc3nc4c(c(NCc5ccco5)n3n2)CCCC4)c1
  HPGD block = u
Cn1c(C(=O)NCC2CCCO2)cc2c(=O)n(C)c3ccccc3c21 (stereo not drawn)
  HPGD block = u
O=c1oc2ccccc2c(O)c1CN1CCCCC1
  HPGD block = -27%
O=C(N/N=C\c1cc(Br)ccc1O)c1ccc(S(=O)(=O)N2CCCCC2)cc1
  HPGD block = -4%
CC(C)(C)C1CCC2(CC1)C(C#N)=C(SCC(=O)Nc1ccccc1)NC(=O)C2C#N (stereo not drawn)
  HPGD block = u

CCCc1nc(N2CCCC2)c(C#N)c2c1CCCC2
  HPGD block = u
CCOC(=O)C1CCCN(C(=O)c2c(-c3ccccc3Cl)noc2C)C1 (stereo not drawn)
  HPGD block = -7%
CC(NC(=O)CCCCCCN1C(=O)c2ccccc2C1=O)c1ccc2c(c1)CCCC2 (stereo not drawn)
  HPGD block = -13%
CCOC(=O)c1ccc(CNC(=O)c2n[nH]c(=O)c3ccccc23)o1
  HPGD block = -15%
Cc1ccc(S(=O)(=O)Cc2ccc(C(=O)N3CCCC3)o2)cc1
  HPGD block = 2%
O=C(CO/N=C/c1ccccc1O)NNC(=O)c1ccccc1Cl
  HPGD block = -13%
CCOC(=O)C(C)(C)[C@H](O)C(C)C
  HPGD block = 0%
COc1cccc(C(=O)NC2=NCCS2)c1
  HPGD block = -8%
NC1=NC(=O)C(Cc2cccc(Cl)c2Cl)S1 (stereo not drawn)
  HPGD block = -3%
Cc1ccc(NC(=O)Cc2nnc(SCC(=O)c3ccc(Br)cc3)n2C)cc1
  HPGD block = -5%

Cc1noc(C)c1CSc1nnc2cc(C)c3ccccc3n12
  HPGD block = -20%
CC(C)OC(=O)Nc1ccc(Oc2c(F)c(F)c(F)c(F)c2F)cc1
  HPGD block = -8%
N#Cc1sc2nc3c(c(-c4cccnc4)c2c1N)CCC3
  HPGD block = -7%
COc1ccc(CCNC(=O)C2CCN(S(=O)(=O)c3ccc(OC)c(OC)c3)CC2)cc1
  HPGD block = 0%
Cc1onc(-c2c(F)cccc2Cl)c1C(=O)NC1CCSC1=O (stereo not drawn)
  HPGD block = -10%
COc1cc(C(=O)NC2CCN(Cc3nnnn3Cc3cccs3)CC2)cc(OC)c1OC
  HPGD block = -7%
COc1ccc(CCN2CC(O)=C(c3nc4ccccc4c(=O)[nH]3)C2=N)cc1OC
  HPGD block = u
C=CCn1c(SCc2ccc(Cl)c(Cl)c2)nnc1C(CO)NC(=O)c1ccc(OC)cc1 (stereo not drawn)
  HPGD block = -19%
CCS(=O)(=O)N1CCCC(C(=O)NCCCN2CCCC2=O)C1 (stereo not drawn)
  HPGD block = -10%
COc1ccc(C(=O)N/N=C/c2ccc(OC(=O)c3cccc4ccccc34)c([N+](=O)[O-])c2)cc1
  HPGD block = -5%

COCCOC(=O)N/C=C\c1nc2ccccc2c(=O)[nH]1
  HPGD block = -5%
O=C1CC(N2CCN(Cc3ccc4c(c3)OCO4)CC2)C(=O)N1Cc1ccc(N2CCCC2=O)cc1 (stereo not drawn)
  HPGD block = -12%
CCOC(=O)/C(C#N)=C1/C=CN(c2ccc(C)cc2)C=N1
  HPGD block = -22%
CC1(C)CC(=O)C(Sc2ccccc2[N+](=O)[O-])=C(O)C1
  HPGD block = u
CC(=O)O[C@@H](C)C#C[Si](C)(C)c1ccccc1
  HPGD block = -1%
Cc1cc(C)n2nc(SCC(=O)N/N=C/c3ccccc3F)nc2n1
  HPGD block = -8%
COC(=O)CCC(=O)Nc1cccc(Br)c1
  HPGD block = 2%
CC[C@H](C)[C@@H]1NC(=O)c2cc([N+](=O)[O-])cc(F)c2NCCCC[C@@H](C(N)=O)NC(=O)[C@H](CC(N)=O)NC1=O
  HPGD block = -3%
CCCN(CC1CC1)S(=O)(=O)c1ccc(-n2cnnn2)c(OC)c1
  HPGD block = -6%
N#Cc1c(/N=C/N2CCCC2)oc(-c2ccccc2)c1-c1ccccc1
  HPGD block = -28%

N#Cc1cccc(NC(=O)N2CC[C@@]3(CCCN(C(=O)c4cc(C(F)(F)F)cc(C(F)(F)F)c4)C3)C2)c1
  HPGD block = -10%
Cn1c(=O)[nH]c(=O)c2c1nc(Br)n2CCCc1ccccc1
  HPGD block = 2%
Nc1nc(O)c2ncn([C@H]3CC[C@@H](CO)O3)c2n1
  HPGD block = -14%
COc1ccccc1N1CCN(CCOc2c(OC)cccc2OC)CC1
  HPGD block = -19%
Cc1ccc(C(=O)N/C(=C\c2cccs2)C(=O)NCC2CCCO2)cc1C (stereo not drawn)
  HPGD block = -16%
O=C1CCC(=O)N1OCCCCOc1ccccc1
  HPGD block = -7%
CCOC(=O)N1CCC(N2C(=O)c3ccccc3C2Nc2cc(Cl)c(OC)cc2OC)CC1 (stereo not drawn)
  HPGD block = -1%
CSc1nc2nccc(-c3ccc(Cl)cc3)n2n1
  HPGD block = -10%
Cc1cc(=O)[nH]c2c1cnn2Cc1ccccc1
  HPGD block = -24%
CC(C)Nc1nnc(SCC(=O)/C=C2\N(C)c3ccccc3C2(C)C)s1
  HPGD block = u

Cc1nc(NCc2ccco2)c2oc3ccccc3c2n1
  HPGD block = u
COC(=O)[C@@]1(Cc2ccc(OC)cc2)[C@H]2c3cc(C(=O)N4CCCC4)n(CCCNc4ncc(C(F)(F)F)cc4Cl)c3C[C@H]2CN1C(=O)c1ccccc1
  HPGD block = -18%
CCOC(=O)CSc1nnc(N)s1
  HPGD block = -13%
Cc1nnc(SCC(=O)Nc2ccc3c(c2)OCO3)o1
  HPGD block = -9%
COc1ccccc1NS(=O)(=O)c1ccc(NC(C)=O)cc1
  HPGD block = -9%
C=CCn1c(SCC(=O)NCc2ccc3c(c2)OCO3)nnc1C1COc2ccccc2O1 (stereo not drawn)
  HPGD block = -3%
Cc1cc(C)nc(NC(=O)c2c(-c3c(Cl)cccc3Cl)noc2C)n1
  HPGD block = -8%
Cc1c(Cl)cc(C(C)(C)C)c(O)c1Cc1c(C)c(Cl)cc(C(C)(C)C)c1O
  HPGD block = -1%
COc1ccc(N=c2oc3ccc(OC)cc3cc2-c2nc3ccccc3[nH]2)cc1
  HPGD block = -7%
O=S(=O)(Cc1ccc(Cl)cc1)N1CCCC1
  HPGD block = 2%

COc1cc2cc(C(N)=O)c(N)nc2cc1OC
  HPGD block = u
CC(=O)c1cccc(NC(=O)c2cc(C(C)C)on2)c1
  HPGD block = -22%
O=C(NC1CC1)c1cccc(Br)c1
  HPGD block = -27%
COc1ccc(OC)c(NC(=O)Nc2cccc3ccccc23)c1
  HPGD block = u
CC(C)(O)c1nnn(-c2ccccc2)c1C(F)(F)F
  HPGD block = -12%
COc1ccc(C(=O)Nc2ccccc2C(=O)N(Cc2ccco2)C(C(N)=O)C(C)C)cc1 (stereo not drawn)
  HPGD block = u
CCOc1ccccc1Oc1c(C)oc2c(CN3CCN(C)CC3)c(O)ccc2c1=O
  HPGD block = u
CCCCC(NC(C)=O)c1nc2ccccc2n1CCC (stereo not drawn)
  HPGD block = 0%
Cc1ncc([N+](=O)[O-])n1CCOC(=O)NC(NCc1ccccc1)C(Cl)(Cl)Cl (stereo not drawn)
  HPGD block = -6%
CCOc1ccc(OCC)c(C2C(C#N)=C(N)N(c3cccnc3)C3=C2C(=O)CC(C)(C)C3)c1 (stereo not drawn)
  HPGD block = -20%

CC(=O)Nc1cc2c(cc1Br)OCCO2
  HPGD block = -13%
CCC(=O)N1CCN(c2ccc(Cl)cc2NC(=O)c2ccc3c(c2)OCCO3)CC1
  HPGD block = -4%
CN(C)C(=O)N1CCC(C(=O)NCc2ccc(F)cc2)CC1
  HPGD block = -7%
c1cncc(-c2nc(NCC3COc4ccccc4O3)c3ccccc3n2)c1 (stereo not drawn)
  HPGD block = -13%
CCOc1cc(NC(=O)CC(C)C)c(OCC)cc1NC(=O)CCn1nnc2ccccc21
  HPGD block = -9%
OCCCNc1ncnc2[nH]ncc12
  HPGD block = -5%
Cc1ccc(Nc2cc(=O)[nH]c(=O)[nH]2)c(C)c1
  HPGD block = -16%
O=C(N/N=C/CCc1ccccc1)c1ccccc1
  HPGD block = -19%
Cc1cc(NC(=O)c2cc(-c3cccc(Cl)c3)on2)no1
  HPGD block = -18%
Cc1cc2ccccc2n1CCNC(=O)COc1ccccc1
  HPGD block = -5%

O=C1CCC2c3ccc4ccccc4c3CCN12 (stereo not drawn)
  HPGD block = -21%
Cc1noc(C)c1CSc1nnc(-c2ccncc2)n1-c1ccc(Cl)c(Cl)c1
  HPGD block = -7%
CCc1ccc(NC(=O)CSc2nc3ccccc3c(=O)n2CCCC(=O)N2CCCC2)cc1
  HPGD block = -10%
CCOC(=O)c1ccc(NC(=O)CSC2=NC(=O)C(CC)C(=O)N2)cc1 (stereo not drawn)
  HPGD block = -14%
COc1ccccc1N(CC(=O)NC1CCCC1)C(=O)c1csnn1
  HPGD block = 4%
Cc1nc2nc(C)c(CCC(=O)Nc3ccc4c(c3)OCO4)c(C)n2n1
  HPGD block = -7%
CCc1ccc(/C=C/C(=O)c2ccc(S(=O)(=O)N(C)C)cc2)cc1
  HPGD block = -18%
CN(C(=O)c1ccc2c(c1)OCO2)C1(C(=O)NC2CCCC2)CCCCC1
  HPGD block = -3%
O=C(CN1CCN(S(=O)(=O)c2ccc(Br)cc2)CC1)N/N=C/c1cccnc1
  HPGD block = -5%
O=C(O)c1ccc(C(=O)O)c(C(=O)Nc2ccc3c(c2)Cc2ccccc2-3)c1
  HPGD block = 3.2µM*

CC1CCN(C(=O)CSc2nnc(Cn3c(=O)sc4ccccc43)n2C)CC1
  HPGD block = -7%
N#Cc1c(-c2cccc(F)c2)cc(-c2ccccc2)nc1Br
  HPGD block = 18µM*
CCC(C)(C)NC(=O)C(c1ccc(C)cc1)N(Cc1cccnc1)C(=O)c1csnn1 (stereo not drawn)
  HPGD block = -8%
O=C(COCC(=O)Nc1cccc(C(F)(F)F)c1)Nc1cccc(C(F)(F)F)c1
  HPGD block = -19%
Cc1cc(C(F)(F)F)n(-c2nc(C(=O)Nc3ccccc3Oc3ccccc3)cs2)n1
  HPGD block = -16%
Cn1c2c(c(=O)n(C)c1=O)C(NC(=O)c1cccs1)(C(F)(F)F)C(=O)N2 (stereo not drawn)
  HPGD block = -6%
CCOC(=O)Cc1nnc(NC(=O)C(CC)Sc2nc(C)cc(=O)[nH]2)s1 (stereo not drawn)
  HPGD block = -20%
CCN(CC)C(=O)C[n+]1cccc(/C=N/O)c1
  HPGD block = -7%
COc1cc(C(=O)OCC(=O)Nc2ccc(F)cc2F)cc(OC)c1OC
  HPGD block = -4%
CC1CCN(C(=S)c2ccc(-c3ccc(Cl)cc3Cl)o2)CC1
  HPGD block = u
COCCNC(=S)NC(=O)CC12CC3CC(CC(C3)C1)C2
  HPGD block = -5%
O=C(CSc1nc2c(c(=O)n1-c1ccc(Cl)cc1)SCC2)NCc1ccco1
  HPGD block = -3%
O=C(O)[C@@H](O)[C@H](O)C(=O)O
  HPGD block = -7%

# The list is partial. The share of hits here may be higher or lower than overall.
